High-throughput results deposited in PubChem BioAssay by several laboratories.
UUG fidelity – alters start codon recognition fidelity in yeast; S. cerevisiae UUG-firefly luciferase reporter, luminescence/redox ratio; activity score, % at 18.7 µM; 350,000 compounds, 0.13% hits;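 active = replicate mean at a twofold rise or more, about +100% in these data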;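 note: firefly luciferase made from a UUG start codon reports start codon fidelity; reporter light over untreated wells divided by growth signal over untreated wells; some hits fall short of that in this replicate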
CSC inhib – cancer stem cell inhibition | cancer stem cell-like cells viability, luminescence | inhibition, % at 7.5 µM | 300,000 compounds, 1.1% hits | AID 2717;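 active = mean at 75% or more and at least half the replicates too; tested in HMLE shEcad cells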;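 note: 0% = median of negative and 100% = median of positive control wells; the first replicate is given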
MT1-MMP act inh – MT1-MMP (human) activation inhibition. HT1080 RFP-PRO-GFP cells, GFP/RFP ratio fluorescence, overnight; percent of plate control window, DMSO zero. GFP/RFP ratio change, % at 20 µM. 360,000 compounds, 0.061% hits. AID 651647;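 active = GFP/RFP ratio change of at least 30% with cell ATP level not reduced by more than half and red fluorescence within 50% of control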; note: strong numbers were not always called active
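Material – HT1080 RFP-PRO-GFP cells · Control set – DMSO wells and RFP-L50D-GFP cells · Incubation – overnight cell settling, then overnight compound exposure, 37 °C, 5% CO2 · Compound dosing – single-point 20 µM compound, 1% DMSO · Read-out – GFP/RFP fluorescence ratio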
eIF4H inh – inhibitors of RNA binding by human eIF4H | 290,000 compounds, 0.94% hits | Q15056 | AID 2012 | inhibition, % at 35 µM | eIF4H fluorescence polarization binding assay;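 active = 50% or more with normal probe brightness, or confirmed in later tests; about a fifth of its hits are not listed in these tables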;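 note: calls also rest on retests at 20 µM and on dose response follow-up; 0% = protein and probe with vehicle and 100% = probe without protein; strong numbers were not always called active; many hits fall short of the cut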
PABP FP inh – blocks human PABP binding to poly(A) RNA; P11940; fluorescence polarization; inhibition, % at 35 µM; 290,000 compounds, 1% hits;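 active = 50% or more with normal probe brightness, or confirmed in later tests; about a fifth of its hits are not listed in these tables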;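 note: calls also rest on retests at 20 µM and on dose response follow-up; controls were probe without protein and protein plus probe with vehicle; some compounds called inactive have numbers as strong as hits; many hits fall short of the cut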
Target sequence (P11940 whole entry, looked up): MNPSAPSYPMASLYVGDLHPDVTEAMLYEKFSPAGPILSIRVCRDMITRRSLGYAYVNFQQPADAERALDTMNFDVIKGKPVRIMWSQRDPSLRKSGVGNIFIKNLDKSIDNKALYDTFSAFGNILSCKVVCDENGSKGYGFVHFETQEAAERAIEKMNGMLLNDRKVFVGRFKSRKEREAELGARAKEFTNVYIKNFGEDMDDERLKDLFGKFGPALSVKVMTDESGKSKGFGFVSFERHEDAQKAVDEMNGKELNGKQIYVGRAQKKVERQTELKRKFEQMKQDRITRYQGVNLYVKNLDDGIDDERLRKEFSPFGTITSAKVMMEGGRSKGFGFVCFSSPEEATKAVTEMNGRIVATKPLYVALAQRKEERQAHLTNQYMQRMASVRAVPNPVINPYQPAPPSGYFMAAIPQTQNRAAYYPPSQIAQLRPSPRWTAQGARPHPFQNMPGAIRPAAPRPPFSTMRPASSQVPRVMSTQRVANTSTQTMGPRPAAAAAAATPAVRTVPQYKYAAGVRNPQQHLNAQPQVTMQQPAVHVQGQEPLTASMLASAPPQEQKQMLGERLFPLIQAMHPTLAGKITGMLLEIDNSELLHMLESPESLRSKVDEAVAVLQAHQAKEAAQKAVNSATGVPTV
Env fusion inh – inhibitors of HIV Env-mediated cell fusion | AID 651610 | HeLa-JRFL Env/CEM21 cell fusion, luciferase | 360,000 compounds, 1.1% hits | inhibition, % at 12.3 µM;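 active = mean replicate inhibition score of at least 50 and every replicate individually at or above 50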;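 note: 0% = plate neutral controls and 100% = maraviroc near 300 nM; one replicate is shown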
Rce1 inhib – yeast Ras-converting enzyme inhibition; Q03530; yeast membranes, quenched prenylated peptide cleavage fluorescence; calls only; 290,000 compounds, 0.27% hits;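 active = fall in fluorescence gain of 50% or more versus controls, with final raw signal at or below 3038400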;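 note: plate controls were neutral control wells for no effect and wells lacking membranes for full effect; tested at 10 µM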
eIF4H inh retest – recorded beside eIF4H inh, whose call it bears; inhibition, %; compound at 20 µM; confirmation average;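 mean of two retest wells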
PABP FP inh retest – also measured in PABP FP inh; calls as there; inhibition, %; compound at 20 µM; confirmation repeats;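 mean of two retest wells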
MT1-MMP act inh RFP – also measured in MT1-MMP act inh; calls as there; RFP signal change, %; measured here: RFP expression control read;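 0 = vehicle wells; hits needed this value within 50% of zero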
Numbers without * were called inactive; i = inactive; . = no result given.

SMILES	UUG fidelity	CSC inhib	MT1-MMP act inh	MT1-MMP act inh RFP	eIF4H inh	PABP FP inh	Env fusion inh	Rce1 inhib	others
CCOC(=O)C1=C(C)NC(=O)CC1c1cc2c(cc1Br)OCO2 (stereo unspecified)	8	-5	1	4	-7	7	.	i
C=CCOc1ccc(/C=C/C(=O)OC(C)C(=O)Nc2ccc(NC(C)=O)cc2)cc1 (stereo unspecified)	-1	-5	-5	0	.	.	-26	i
c1ccc(-c2cncn2-c2ccccc2)cc1	-15	1	6	1	.	.	-11	i
CCN1C[C@@H]2[C@@H]3C(=O)N(Cc4ccccc4)C(=O)[C@@H]3[C@](Cc3ccccc3)(C1=O)N2C(=O)c1ccccc1	-15	.	-6	1	.	.	13	.
Cn1c(SCC(=O)c2ccc(F)cc2)nc2cccnc21	-24	1	-2	-1	-6	-7	.	i
CCCC(C)C(=O)Nc1ccc(Cl)cc1Cl (stereo unspecified)	-13	-8	3	3	8	6	.	i
C[C@@]12C(=O)N(CC3CC3)CC(=O)N1[C@H](/C=C/c1ccccc1)[C@@H]1C(=O)N(c3ccccc3)C(=O)[C@@H]12	-7	8	-6	1	-3	9	-11	i
CCOC(=O)c1ccc(NC(=O)CCc2ccc(C)o2)cc1	-12	.	-2	2	-4	-12	.	i
COC(=O)C1CSC(C(=O)OC)N1C(=O)CN1CCN(c2ccc(OC)cc2)CC1 (stereo unspecified)	-25	-2	1	6	-2	9	5	i
CCn1c(/C=N/n2cnnc2)nc2ccccc21	2	-13	-5	-2	3	-1	.	i
Clc1cccc(-c2cc3nc4c(c(NCc5ccco5)n3n2)CCCC4)c1	-14	58	-17	-17	-8	-12	.	.
O=C(Nc1ccccc1OC(F)F)c1ccc(N2CCCC2=O)cc1	-21	.	2	3	.	.	11	.

Random excerpt: two records from the list, in no set order.
SMILES	UUG fidelity	CSC inhib	MT1-MMP act inh	MT1-MMP act inh RFP	eIF4H inh	PABP FP inh	Env fusion inh	Rce1 inhib	others
COC(=O)C1CSC(C(=O)OC)N1C(=O)CN1CCN(c2ccc(OC)cc2)CC1 (stereo unspecified)	-25	-2	1	6	-2	9	5	i
c1ccc(-c2cncn2-c2ccccc2)cc1	-15	1	6	1	.	.	-11	i

Later entries:
SMILES	UUG fidelity	CSC inhib	MT1-MMP act inh	MT1-MMP act inh RFP	eIF4H inh	PABP FP inh	Env fusion inh	Rce1 inhib	others
O=C(CSc1ncccn1)c1ccccc1Br	-30	-9	2	2	0	-3	.	i
O=C(NCc1ccccc1)C(=O)NCC1CCCN1S(=O)(=O)c1cccs1 (stereo unspecified)	-9	-6	2	2	.	.	-15	i
COc1ccc(C)cc1NC(=O)NNC(=O)C(C)Oc1ccc([N+](=O)[O-])cc1 (stereo unspecified)	0	3	-3	-3	-13	-3	0	i
COc1ccc(Cl)cc1C(=O)Nc1ccc(S(=O)(=O)N2CCCC2)cc1	-15	-3	4	3	-2	3	-17	i
CCOC(=O)c1c(C)c(C)n(Cc2cccc(OC)c2OC)c1C	.	-10	-1	1	12	5	12	i
O=C1CSC(c2cccnc2)N1Cc1ccc(Cl)cc1Cl (stereo unspecified)	.	3	-1	2	1	-3	-3	i
COc1ccccc1NS(=O)(=O)c1cc(NC(=O)CCC2CCCC2)ccc1N1CCOCC1	-10	-8	0	0	-8	-2	-5	i
COc1ccc(-n2ncc3c(N4CCN(c5cc(C)ccc5C)CC4)ncnc32)cc1	-18	9	4	-1	-6	-3	-2	i
Cc1cccc2sc(N(CCN(C)C)C(=O)/C=C/c3cccs3)nc12	-28	36	-7	-6	7	-9	0	i
CC(OC(=O)c1ccccc1C(=O)N(C)C1CCCCC1)C(=O)NC1(C#N)CCCCC1 (stereo unspecified)	8	-12	5	-2	.	.	.	.
CC(C)CC(=O)N1CCN(C(=O)c2ccc(-c3ccccc3)cc2)CC1	-5	-4	4	-4	-2	-5	9	i
COc1ccccc1NC(=S)NNC(=S)Nc1ccc(OC(F)F)cc1	.	51	0	-3	6	-2	-36	i

Of the compounds above, two have an aryl thioether with sulfur outside any ring:
SMILES	UUG fidelity	CSC inhib	MT1-MMP act inh	MT1-MMP act inh RFP	eIF4H inh	PABP FP inh	Env fusion inh	Rce1 inhib	others
Cn1c(SCC(=O)c2ccc(F)cc2)nc2cccnc21	-24	1	-2	-1	-6	-7	.	i
O=C(CSc1ncccn1)c1ccccc1Br	-30	-9	2	2	0	-3	.	i

Grouped by structure: the entries above with fluorine (three)
SMILES	UUG fidelity	CSC inhib	MT1-MMP act inh	MT1-MMP act inh RFP	eIF4H inh	PABP FP inh	Env fusion inh	Rce1 inhib	others
Cn1c(SCC(=O)c2ccc(F)cc2)nc2cccnc21	-24	1	-2	-1	-6	-7	.	i
O=C(Nc1ccccc1OC(F)F)c1ccc(N2CCCC2=O)cc1	-21	.	2	3	.	.	11	.
COc1ccccc1NC(=S)NNC(=S)Nc1ccc(OC(F)F)cc1	.	51	0	-3	6	-2	-36	i

More entries:
SMILES	UUG fidelity	CSC inhib	MT1-MMP act inh	MT1-MMP act inh RFP	eIF4H inh	PABP FP inh	Env fusion inh	Rce1 inhib	others
Cc1cc(C)c(CN2CCN(C(=O)Cn3ccc(N)nc3=O)CC2)c(C)c1	-16	1	-5	-3	.	.	-3	.
O=c1cc(-c2ccccc2)nc2cc(-c3ccco3)[nH]n12	2	-3	3	6	16	29	-13	i
O=C(CCN1CCc2ccccc2C1)Nc1ccccc1	-15	-12	-8	-5	-2	-2	-9	i
O=S(=O)(Nc1ccc2cn[nH]c2c1)c1cc(Br)ccc1Br	1	10	9	-2	.	.	28	.
COC(=O)C(Cc1ccccc1)NC(=O)CCC(=O)NC(C)CCc1ccccc1 (stereo unspecified)	13	-12	-1	0	-6	6	2	i
Cc1sc2ncn(CC(=O)NCC3COc4ccccc4O3)c(=O)c2c1S(=O)(=O)N1CCOCC1 (stereo unspecified)	.	8	0	8	2	5	4	i
O=C(CNC(=O)c1cn2ccccc2n1)Nc1ccc(F)c(F)c1	-15	-5	4	1	.	.	-50	i
CC(C)n1cc(C(=O)c2ccccc2O)cc(C#N)c1=O	230*	-11	-1	-1	-4	5	-14	i
COC(=O)c1ccc(/C=N/NC(=O)C(=O)N2CCCCCC2)cc1	-14	-23	-5	1	8	5	9	i
Cc1ccc(C(=O)C2CCN(S(=O)(=O)c3c(C)noc3C)CC2)cc1	0	-2	1	1	5	-2	-2	i
O=S(=O)(c1ccccc1)N1CCCC1c1nc2ccccc2s1 (stereo unspecified)	-10	-17	-1	-4	-1	-8	-66	i
COC(=O)[C@@H]1C[C@H]1[C@@H](NC(=O)c1ccccc1)c1ccccc1	-13	6	-2	3	-4	-12	5	i
CC(C)CC(=O)Nc1ccccc1N1CCOCC1	-20	-4	2	-1	-2	2	-7	i
O=C(COC(=O)Cc1ccccc1[N+](=O)[O-])NCc1ccc(F)cc1	-11	-15	4	0	11	-1	2	i
CCC(c1nnnn1Cc1ccc2c(c1)OCO2)N1CCN(c2ccccc2)CC1 (stereo unspecified)	-7	20	-7	-3	4	-3	-41	i
C=CCNC(=O)CN(Cc1ccccc1)S(=O)(=O)c1ccccc1	-17	-10	-2	2	-2	5	10	i
O=C(NC(c1ccc(Cl)cc1)c1cnccn1)C1CCN(Cc2ccccc2)CC1 (stereo unspecified)	-12	.	-1	-3	.	.	-4	.
CC(=O)c1ccccc1N(C(=O)c1ccco1)C(C(=O)NC1CCCC1)c1ccc(N2CCOCC2)cc1 (stereo unspecified)	.	-1	-9	4	0	-12	-22	i
O=C(Nc1ccc2nc(-c3ccco3)[nH]c2c1)c1ccco1	-23	20	8	6	61	26*	-133	i	eIF4H inh retest=9;PABP FP inh retest=62*
C/C(=N\OCC(=O)Nn1c(=O)[nH]c2ccccc2c1=O)c1cccs1	.	-17	2	8	4	11	5	i
COc1cccc(NC(=O)Nc2nnc(Cc3ccccc3F)s2)c1	-16	41	-2	-12	-7	0	-5	i
Cc1ccc(S(=O)(=O)c2nc(-c3ccccc3Cl)oc2N(C)C)cc1	-4	1	-11	-14	1	6	56*	i
Cc1ccc(Cl)cc1NC(=O)c1cc(NC(=O)CCCC(=O)O)ccc1N1CCCCC1	-3	-20	2	1	-6	10	1	i
COC(=O)c1ccc(Cn2cc(Cl)cn2)cc1	-14	-11	3	-2	-5	1	-26	i
O=C(Nc1ccc(F)c([N+](=O)[O-])c1)c1ccc2c(c1)OCCO2	1	1	-2	-6	1	-7	-16	i
COc1ccc(S(=O)(=O)N2CCCN(CC(=O)Nc3ccc(OC)c(Cl)c3)CC2)cc1	4	-1	-25	-5	-12	-10	-169	i
COc1cc(C)nc(N2CCCC(C(=O)Nc3ccccc3Br)C2)n1 (stereo unspecified)	.	2	-2	2	2	11	-10	.
Cc1sc2ncnc(N3CCC(C(=O)Nc4nnc(SCc5ccccc5F)s4)CC3)c2c1C	.	8	7	-4	.	.	-25	i
COc1ccc(S(=O)(=O)N2CCCCC2)cc1NC(=O)CCNC(=O)c1ccccc1Cl	-6	.	4	1	.	.	19	.
Cc1cc2ccccn2c1C(C[N+](=O)[O-])c1ccc(N(C)C)cc1 (stereo unspecified)	.	8	-8	0	35	7	-79	i
CC(C(=O)Nc1ccccc1)N1CCN(C(=O)c2ccco2)CC1 (stereo unspecified)	-13	.	-1	8	.	.	0	.
Cc1cc(N)n(-c2ccc3ccccc3c2)n1	-18	29	-5	-6	-5	-19	2	i
Cc1cc(NCCCn2ccnc2)n2nc(-c3ccc(Cl)cc3)cc2n1	.	27	1	-7	0	-5	-10	i
O=C(Nc1ccc(N2CCCC2)cc1)c1cccc(-c2cc3ccccc3oc2=O)c1	-9	-14	-7	-7	23	6	3	i
Cc1nc([N+](=O)[O-])c(SCC(O)CCl)n1Cc1ccc(Cl)cc1 (stereo unspecified)	.	-11	2	-1	-1	-6	9	i
COc1ccccc1NC(=S)N(CCCN(C)C)Cc1cc2cc3c(cc2[nH]c1=O)OCO3	.	-11	1	7	3	-4	-12	i
S=C(NCCCc1cnc[nH]1)NCCCN(Cc1ccc(Cl)cc1)c1ccc(Br)cn1	-20	.	4	-2	.	.	15	.
CC(=O)Nc1ccc(S(=O)(=O)NCCS(=O)(=O)N2CCN(c3ccccc3)CC2)cc1	-12	-5	1	-17	-10	2	-4	i
COc1cc(NC(=O)c2cc(-c3ccccc3)on2)cc(OC)c1OC	-2	15	-3	-1	-7	-8	0	i
CCCN(CCC)CC(O)CN(c1cc([N+](=O)[O-])ccc1OC)S(=O)(=O)c1ccccc1 (stereo unspecified)	-6	-2	-5	-3	-1	0	.	i
COc1cc(CNCCCN2CCOCC2)ccc1OCC(=O)NC(C)(C)C	.	-5	13	17	-19	12	-10	i
CCCc1cc(=O)oc2c(C)c(O)c(CN3CCCCC3)cc12	-18	-6	-4	1	-10	-8	21	i
COc1ccc(N2CCN(C(=O)Cc3ccc(OC)c(OC)c3)CC2)cc1	19	-22	-1	-7	3	-6	7	i

The list is partial; rates above refer to the full screens.
